VDR inhibitor: Inhibitors of the vitamin D receptor (VDR): qHTS; VDR-SRC2-3 peptide fluorescence polarization, 2 h; AID 504847, 2011; 400,000 compounds, 0.93% hits; Potency, µM, for the others: max response, negative = inhibition, actives largely listed as inhibitors; active = well fitted inhibition curve with a large enough effect; inconclusive = small, poorly fitted or top-dose-only effect, or another doubt; inactive = no such curve, though single readings can be large or run the other way; note: series mostly up to about 120 µM
Target sequence (P11473 whole entry, looked up): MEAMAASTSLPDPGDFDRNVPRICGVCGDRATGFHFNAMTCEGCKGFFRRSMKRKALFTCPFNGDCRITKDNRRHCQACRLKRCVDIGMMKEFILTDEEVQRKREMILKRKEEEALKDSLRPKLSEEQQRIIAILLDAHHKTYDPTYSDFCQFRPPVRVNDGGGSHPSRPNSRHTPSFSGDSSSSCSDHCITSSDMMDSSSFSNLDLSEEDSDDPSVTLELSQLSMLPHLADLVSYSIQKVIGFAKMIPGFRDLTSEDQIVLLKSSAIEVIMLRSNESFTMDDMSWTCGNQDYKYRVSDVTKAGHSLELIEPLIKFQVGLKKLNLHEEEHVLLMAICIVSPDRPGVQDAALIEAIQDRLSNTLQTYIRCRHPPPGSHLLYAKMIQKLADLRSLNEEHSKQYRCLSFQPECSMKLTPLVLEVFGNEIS
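The screen uses fluorescence polarization to detect compounds that interfere with recruitment of the SRC2-3 coactivator peptide to VDR; plates are read after 2 h at room temperature.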
Starred values were filed as active, the others as inactive; ? = inconclusive; & = joins results of further samples. % is set by controls: 0 for no effect and ±100 for the full control effect; potency is the fitted concentration of half-maximal effect. Only part of the results is shown, so the mix of outcomes need not match the whole.

VDR inhibitor,SMILES
-17%,Fc1c(F)c(C(F)(F)F)c(F)c(F)c1N1CCN(c2ccc3nnc(C(F)(F)F)n3n2)CC1
-22%,N=C1C(c2nc3ccccc3s2)=C(O)CN1C1CCC(O)CC1 (stereo not drawn)
-2%,COC(=O)c1cc(OC)c(OC)c(OC)c1NC(=O)c1ccc(S(=O)(=O)N(C)C)cc1
-3%,COc1ccc(S(=O)(=O)N(CC(=O)NCC2CCCO2)C2CCCCC2)cc1OC (stereo not drawn)
-14%,CCn1c(SCC(=O)N2CCOCC2)nc2c(c1=O)SC(C)C2 (stereo not drawn)
-8%,O=C(Nc1cccc(Cl)c1)c1ccc(OC(=S)N2CCOCC2)cc1
8%,COCCCn1c(SCC(=O)Nc2ccc(NC(C)=O)cc2)nc2sc3c(c2c1=O)CCC3
18%,CCc1ccc(CN(Cc2ccco2)C(=O)c2cc(-c3ccc(Cl)cc3)on2)cc1
2%,O=c1nc2c(O)cccn2c2c1c(=O)[nH]c1ccccc12
-2%,Cc1cc(C)n2nc(CC(=O)NCc3ccccc3Cl)nc2n1
7%,CCCCCNS(=O)(=O)c1cc(C)ccc1OC
-28%,CCN(CC)S(=O)(=O)c1ccc(N2CCCC2)c(NC(=O)c2ccc(N3CCCC3=O)cc2)c1
?,COc1cc(SC#N)ccc1N=Cc1c(C)[nH]n(-c2ccc(C)cc2C)c1=O
-4%,CC(C)C(NC(=O)OCc1ccccc1)C(=O)N1CCOCCOCCOCC1 (stereo not drawn)
?,COc1ccc(NS(=O)(=O)c2ccc(NC(C)=O)cc2)c(OC)c1
11%,O=C(Nc1ccccc1N1CCCC1)C1CCN(C(=O)c2ccc(F)cc2)CC1
4%,CC(Oc1ccccc1F)C(=O)NNC(=O)CCNC(=O)c1ccco1 (stereo not drawn)
-10%,CC(C)Cn1cnc2c(SCc3ccccn3)nc(N)nc21
3%,Cc1ccc(COc2ccccc2C(=S)N2CCCC2)cc1
-29%,O=C(Cn1cc(COc2ccc(Br)cc2[N+](=O)[O-])nn1)c1ccc(O)cc1
15%,CCOC(=O)c1cn(CC(=O)Nc2cccc(F)c2)nn1
-30%,CC1CN(C(=O)CCC(=O)NC2CCN(Cc3ccccc3)CC2)c2ccccc2O1 (stereo not drawn)
13%,CC(Sc1nccn1C)C(=O)c1ccc(Br)cc1 (stereo not drawn)
-17%,O=C(NCCc1ccccc1)c1ccc(CS(=O)(=O)Cc2ccc(F)cc2)o1
?,C=CCN1C(=O)C(O)(CC(=O)c2ccc(-n3cccc3)cc2)c2ccccc21 (stereo not drawn)
-13%,Cc1cc(N(CCO)CCO)nc(-n2nc(C)cc2C)n1
-12%,Fc1ccccc1Nc1nc2ccccc2n2nnnc12
-4%,CN(C)S(=O)(=O)c1ccc(C(=O)N2CC(=O)Nc3ccc(F)cc3C2c2ccc(F)cc2)cc1 (stereo not drawn)
2%,CCOc1cc(NC(=S)NCc2ccco2)c(OCC)cc1NC(C)=O
-16%,COc1ccc(NC(=O)C(=O)NCCO)cc1Cl

Arranged by the number under VDR inhibitor (low to high): 3 from the list above.
| Molecule | VDR inhibitor |
| --- | --- |
| Cc1cc(N(CCO)CCO)nc(-n2nc(C)cc2C)n1 | -13% |
| Fc1ccccc1Nc1nc2ccccc2n2nnnc12 | -12% |
| CC(Oc1ccccc1F)C(=O)NNC(=O)CCNC(=O)c1ccco1 (stereo not drawn) | 4% |

Next section.
VDR inhibitor,SMILES
7%,Cc1cc(OCC(=O)Nc2ccncc2)cc(C)c1Cl
-3%,CCCOC(=O)CC1C(=O)NCCN1Cc1cc(OC)cc(OC)c1 (stereo not drawn)
3%,Cc1ccnc(NC(=O)c2cccc(NS(=O)(=O)c3ccccc3C)c2)c1
-1%,O=C(NC1CCCCC1)C1CCCN(S(=O)(=O)c2ccc(Br)s2)C1 (stereo not drawn)
-8%,COc1ccc(CNC(=O)c2nccnc2CO)cc1
-18%,OC(c1ccccc1)(c1ccccc1)c1ncc[nH]1
?,O=C(O)c1ccc(-c2ccc(/C=c3/sc4nc5ccccc5n4c3=O)o2)cc1Cl
-12%,CCCCC/C=C/C1=CC(=O)C[C@H](c2ccc(OC)c(OC)c2)C1
-20%,O=C(C[C@H]1C[C@H](C(=O)N2CCOCC2)[C@@]2(CCC3CCCC3)c3[nH]c4ccc(Cl)cc4c3CCN2C1=O)NCC12CC3CC(CC(C3)C1)C2
-8%,Cc1cc(C)c(C(=O)N(C)CC2CCCN(CCc3ccccc3F)C2)o1 (stereo not drawn)
-12%,O=S(=O)(Nc1cccc(-c2ccc(N3CCOCC3)nn2)c1)c1ccc(Cl)c(Cl)c1
10%,Cc1ccc(C)c(-c2csc(N/N=C/c3ccco3)n2)c1
-19%,CC1(C)Cc2ccccc2C(COc2ccccc2)=N1
-4%,CC(NS(=O)(=O)c1ccc(Br)cc1)C(=O)NC1CCCCCC1 (stereo not drawn)
-3%,COc1ccccc1NC(=O)c1ccc2c(c1)C(=O)N(c1ccccc1OC)C2=O
0%,NNC(=O)c1sc2cc(C(F)(F)F)cnc2c1-c1ccccn1
0%,CC(=O)Nc1c(NC(C)(C)C)c2ccccc2oc1=O
0%,C[N+](C)(C)CCNC(=O)c1c(O)c2c([nH]c1=O)CCCC2
2%,CC(=O)N(CCc1ccccc1)Cc1cc2ccc(C)c(C)c2[nH]c1=O
?,C/C(CS(=O)(=O)c1ccc(Cl)c(Cl)c1)=N/NC(N)=S
16%,CCCCNC(=O)CSc1nc2ccc(N3CCOCC3)cc2c(=O)n1Cc1ccc(OC)cc1
-15%,Cc1cc(C)c(NC(=O)CS(=O)CC(=O)N2CCN(c3cccc(C)c3C)CC2)c(C)c1 (stereo not drawn)
-2%,Cc1cccc2cc(C(c3nnnn3Cc3ccccc3)N3CCN(C)CC3)c(=O)[nH]c12 (stereo not drawn)
12%,COC(=O)c1ccccc1NC(=O)c1cnc2c(-c3cccc(C)c3)c(C)nn2c1C
79µM*,O=Nc1c(O)ccc2cc(S(=O)(=O)O)ccc12
?,CCOC(=O)N1CCN(C(=O)Nc2ccc3oc(C)nc3c2)CC1
3%,CCOc1ccc(-n2c(SCC(=O)NCc3ccco3)nc3ccccc3c2=O)cc1
4%,CCS(=O)(=O)N1CCC(C(=O)OCC(=O)c2ccc(Br)cc2)CC1
7%,Cc1onc(-c2ccccc2Cl)c1C(=O)NCc1ccccc1
9%,O=C(OCC(=O)N1CCC(Cc2ccccc2)CC1)c1ccccc1O
6%,CCOC(=O)N1CCN(C(=O)CSc2ccc3nnc(-c4ccccn4)n3n2)CC1
0%,CN(C)S(=O)(=O)c1ccc(C(=O)NNC(=O)C2COc3ccccc3O2)cc1 (stereo not drawn)
-16%,Cc1cc(C)cc(N(CC(=O)N2CCC(C)CC2)S(=O)(=O)c2ccccc2)c1
-8%,O=C(CCn1c(=O)oc2ccccc21)Nc1cccc([N+](=O)[O-])c1
-24%,Nc1ccccc1-c1nnc(SCC(=O)Nc2ccccc2OC(F)F)[nH]c1=O
-3%,O=C(CSCc1ccccc1)NNc1c(F)c(F)cc(F)c1F
0%,COC(=O)/C(C#N)=C/c1c(N2CCCCCC2)nc2c(C)cccn2c1=O
4%,CC(=O)Nc1sc(C)c(C)c1C(=O)OCC(=O)NCc1ccc(Cl)cc1
10%,O=C(CSc1nccc(=O)[nH]1)N1CCOCC1
-30%,Cc1ccc(NC(=S)NC(NC(=O)Cc2cccc3ccccc23)C(Cl)(Cl)Cl)cc1 (stereo not drawn)
4%,COCCNC(=O)CSc1ccc(Cl)cc1
16%,COc1ccc(OC)c(CNC(=O)C2CCN(C(=O)N(C)C)CC2)c1
10%,Cc1ccc(OCC(=O)Nc2nnc(SCc3cc(=O)c4ccccc4[nH]3)s2)cc1
-20%&-7%&-3%,S=c1nc[nH]c2nc[nH]c12
5%&-4%,COc1ccc2[nH]c(-c3ccccc3)c(CCNC(C)=O)c2c1

Some of the entries so far, as labelled records.
> OC(c1ccccc1)(c1ccccc1)c1ncc[nH]1
- VDR inhibitor: -18%
> O=C(O)c1ccc(-c2ccc(/C=c3/sc4nc5ccccc5n4c3=O)o2)cc1Cl
- VDR inhibitor: ?
> CCCCC/C=C/C1=CC(=O)C[C@H](c2ccc(OC)c(OC)c2)C1
- VDR inhibitor: -12%
> O=C(C[C@H]1C[C@H](C(=O)N2CCOCC2)[C@@]2(CCC3CCCC3)c3[nH]c4ccc(Cl)cc4c3CCN2C1=O)NCC12CC3CC(CC(C3)C1)C2
- VDR inhibitor: -20%

Following part
VDR inhibitor,SMILES
-4%,CCOc1ccc(CN(C(=O)c2cc3ccccc3oc2=O)C2CC2)cc1
-22%,CCc1cc[n+](-c2nc3ccccc3nc2C(=C=[N-])C#N)cc1
-24%,CC(C)P(=O)(c1cccc(C(=O)O)c1)C(C)C
10%,CCCOc1ccc2oc(=O)c3c(c2c1)CCCN3C(=O)CN1CCCC(C(=O)OCC)C1 (stereo not drawn)
13%,Cc1cc(C)n(C(=O)CNC(=O)c2cccc(Br)c2)n1
7%,O=[N+]([O-])c1ccc(C(c2sc3nc(-c4ccco4)nn3c2O)N2CCN(c3cccc(Cl)c3)CC2)cc1 (stereo not drawn)
7%,NS(=O)(=O)c1ccc(S(=O)(=O)NCCc2ccccc2)cc1
3%,COCCN(Cc1ccccc1)C(=O)c1cccc(S(=O)(=O)N2CCN(c3ccccc3)CC2)c1
-19%,CCN(CC)CCn1c2ccccc2c2n[nH]c(=S)nc21
-24%,CSc1ccc(S(=O)(=O)N2c3ccccc3CC2C)cc1 (stereo not drawn)
3%&-11%,CCOc1ccc(NC(=O)N2CCC(C(N)=O)(N3CCCCC3)CC2)cc1
-12%,CCN(CC)CCNS(=O)(=O)c1ccc(/C=C/C(=O)O)cc1
1%,CS(=O)(=O)Nc1nc2ccccc2[nH]1
3%,CC1CCCCN1C(=O)CSc1nc2ncccc2[nH]1 (stereo not drawn)
-9%,CCOc1ccc(NC(=O)CC2C(=O)N(c3ccc(F)cc3)C(=O)N2CCc2sccc2C)cc1 (stereo not drawn)

Some of these compounds in order of molar mass, highest first:
VDR inhibitor,SMILES
3%&-11%,CCOc1ccc(NC(=O)N2CCC(C(N)=O)(N3CCCCC3)CC2)cc1
7%,NS(=O)(=O)c1ccc(S(=O)(=O)NCCc2ccccc2)cc1
1%,CS(=O)(=O)Nc1nc2ccccc2[nH]1

Continuation.
VDR inhibitor,SMILES
-8%,CC(C)Cc1nc(N2CCN(C(=O)c3ccccc3)CC2)c(C#N)c2c1CCC2
-7%,COc1cccc(CC(=O)Nc2ccc(-c3csc(C)n3)cc2)c1
5%,COC(=O)c1sc2cccc(F)c2c1S(=O)(=O)NC(C)c1ccccc1 (stereo not drawn)
-2%,CCc1ccccc1NC(=O)[C@@H]1CCC(=O)N1C1OC(=O)c2ccccc21 (stereo partly drawn)
-6%,O=C1/C(=C\c2cccs2)Sc2ccc3ccccc3c21
15%,Cc1cccc(C)c1NC(=O)Nc1cccs1
6%,Cc1cc(-c2ccc([N+](=O)[O-])cc2)nc2ccccc12
3%,COC(=O)c1cccnc1Oc1ccccc1
-2%,COc1ccc(NC(=O)COc2ccc(C(=O)NCc3cccnc3)cc2OC)cc1
-10%,Cc1csc(NC(=O)C2CSC3(C)CCC(=O)N23)n1 (stereo not drawn)
-13%,CN(C)c1ncc2nc(-c3cc(F)cc(F)c3)c(=O)n(C3CC3)c2n1
-11%,CN1CCc2cc(O)c(O)cc2C1Cc1ccc(O)c(O)c1 (stereo not drawn)
-22%,O=C(c1ccco1)N1CCC2(CC1)CCN(c1ccccn1)CC2
-16%,Cc1ccc(C(=O)Nc2c(C)cc(-c3ccc(Cl)cc3)oc2=O)cc1
10%,Cc1onc(-c2ccccc2)c1C(=O)Oc1ccccc1
?,COc1ccc(Cl)cc1-n1c(=S)sc2c(=O)n(-c3ccc(F)cc3)c(SCC(=O)O)nc21
-9%,COc1ccc(-c2nc(CS(=O)CC(=O)NCc3ccccc3)c(C)o2)cc1OC (stereo not drawn)
8%,CCCCNC(=S)N1CCN(CC)CC1
-1%,CCOC(=O)c1[nH]c(C)c(CCC(=O)NCc2ccc(CC)cc2)c1C
14%,Cc1cc(NC(=O)COC(=O)c2ccccc2NCCO)no1
13%,COc1cc(/C=C2/OC(=O)c3cc([N+](=O)[O-])ccc32)cc(OC)c1OC
-23%,O=C(Nc1cccc(Cl)c1N1CCOCC1)c1cccs1
-20%,O=C(O)CN=C(NS(=O)(=O)c1ccc(Cl)cc1)c1ccc(F)cc1
-14%,CC(=O)C1=C(O)C(=O)N(c2ccc(Br)cc2)C1c1cccc([N+](=O)[O-])c1 (stereo not drawn)
-2%,Cc1cccc(C)c1OCC(O)Cn1ccnc1C (stereo not drawn)
-7%,Cc1cc(S(=O)(=O)Nc2ccc(C(=O)NCC(c3ccccc3)N(C)C)cc2)ccc1F (stereo not drawn)
-5%,Cc1ccc(-n2c(=O)c3c(cnn3C)n(CC(=O)Nc3cc(C)ccc3C)c2=O)cc1
-1%,CCc1ccc(-n2nnc(-c3nsc(NC(=O)c4ccccc4Cl)n3)c2C)cc1
10%,C=CCc1c(OC)ccc2ccc(=O)oc12
16%,COc1ccccc1NC(=O)CSC1=Nc2ccccc2C2=NC(CCC(=O)NCc3ccco3)C(=O)N12 (stereo not drawn)

Entries listed above marked active in VDR inhibitor:
VDR inhibitor,SMILES
79µM*,O=Nc1c(O)ccc2cc(S(=O)(=O)O)ccc12

The listing continues.
VDR inhibitor,SMILES
-13%,CN1CCC(N(C)C(=O)c2cc(S(=O)(=O)N3CCOCC3)ccc2Cl)CC1
0%,COc1ccc(NC(=S)NC(=O)Cc2ccccc2)c(OC)c1
-4%,C=CCOc1ccc(C(=O)n2cc(C(=O)OC)c3ccccc32)cc1
-19%,Cc1cc(SCC(=O)NCCN2C(=O)CSC2=O)nc2ccccc12

Screens (PubChem)
